# A1 inh: inhibitors of the anti-apoptotic protein A1, read as caspase activation | AID 2462 | caspase activation, % (no concentration beside the values) | MEF A1-2A-BIM cells, Caspase-Glo 3/7 luminescence, 3 h; percent of clofoctol response, vehicle zero | 0.066% of 330,000 active;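 active means over half of replicate activation scores above 10%, or exactly half above 10 with the replicate mean above 10; inconclusive means replicate mean below 10 yet half the replicates above 10; inactive means over half of replicates below 10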;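 further: wells of about 30 µL received 50 nL stock; many hits fall short of the cut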
# Beta cell apopt: blocks beta cell apoptosis | INS-1E cytokine-induced death, ATP luminescence, 48 h; percent of positive-control rescue, neutral wells zero | protection from apoptosis, % (no concentration beside the values) | 0.8% of 300,000 active;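 active means all replicates at 75% or more, or half of them and the mean; inconclusive means half reach 75% but not the mean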;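 further: 0% = cytokine-treated negative control wells and 100% = positive control rescue; higher means more ATP so stronger rescue from cytokine killing; wells of about 40 µL received 100 nL stock; the first replicate is given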
# Calb FLC: affects C. albicans growth with fluconazole; AID 1979; growth inhibition, % (concentration not given with the values); C. albicans CaCi-2 (fluconazole-resistant clinical isolate) + fluconazole, Alamar Blue growth, 48 h; 0.57% of 300,000 active;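 active means most replicates above 75%; inconclusive means exactly half above 75%; inactive means most below 75%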;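 further: all wells also contain fluconazole at 8 µg/ml as a sub-toxic cotreatment; 0% = median of DMSO wells and 100% = median of geldanamycin control wells; wells of about 8 µL received 7.5 nL stock; the first replicate is given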
# AF4-AF9 inh: inhibitors of human MLL-AF4/AF9 interaction; P42568; AlphaScreen, biotin-AF4 peptide binding to FLAG-AF9; inhibition, % at 10 µM; 0.47% of 350,000 active;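 active means every replicate reaching a set inhibition limit, whatever the replicate mean, cut at about 25% in these data; inconclusive means mean inhibition reaches that limit but some replicates miss it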;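 further: 0% = plate neutral control median and 100% = total signal loss; the record names both 10 and 1 µM as test concentration; the first replicate is given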
# Target sequence (P42568 whole entry, looked up): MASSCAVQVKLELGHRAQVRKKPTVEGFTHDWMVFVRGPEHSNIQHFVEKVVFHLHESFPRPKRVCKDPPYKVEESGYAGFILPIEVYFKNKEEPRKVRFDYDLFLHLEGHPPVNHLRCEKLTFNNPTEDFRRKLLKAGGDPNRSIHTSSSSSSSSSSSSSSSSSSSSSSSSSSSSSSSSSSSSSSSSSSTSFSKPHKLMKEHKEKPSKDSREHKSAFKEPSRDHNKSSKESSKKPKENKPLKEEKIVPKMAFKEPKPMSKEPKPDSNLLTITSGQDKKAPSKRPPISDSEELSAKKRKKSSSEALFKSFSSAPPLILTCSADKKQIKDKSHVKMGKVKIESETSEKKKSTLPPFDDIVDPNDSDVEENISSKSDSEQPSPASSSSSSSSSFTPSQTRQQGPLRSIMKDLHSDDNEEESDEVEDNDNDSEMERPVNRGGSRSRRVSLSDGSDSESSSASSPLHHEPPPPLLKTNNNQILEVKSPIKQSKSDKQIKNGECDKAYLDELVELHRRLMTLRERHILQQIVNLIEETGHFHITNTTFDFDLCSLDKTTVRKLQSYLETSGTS
# RanGTP-Impb inh: inhibitors of RanGTP-importin-beta interaction, primary screen, biochemical, FRET, CFP-Ran, YFP-importin-beta, homogeneous; cell-free CFP-Ran/YFP-importin-beta FRET ratio; inhibition, % (test concentration not listed); 1.1% of 300,000 active; AID 2216;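 active means most replicates above 15%; inconclusive means exactly half above 15%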;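 further: 0% = DMSO wells and 100% = Ran loaded with GDP instead of GTP; wells of about 40 µL received 100 nL stock; the first replicate is given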
# T cruzi inh: blocks replication of Trypanosoma cruzi; T. cruzi beta-gal in NIH3T3, luminescence, 90 h; inhibition, % (no concentration beside the values); 1.4% of 300,000 active; AID 1885;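 active means mean inhibition across valid replicates above about 55%, limit read from the data; inconclusive means mean below that limit but half or more replicates reach it; inactive means mean below it, under half of replicates reach it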;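 further: signal also drops with host cell toxicity which is not excluded here; 0% = plate median of DMSO wells and 100% = zero luminescence signal; higher percent means less beta-gal luminescence so fewer parasites; stock transfer was 50 nL into about 50 µL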
# rRNA inh HTS: inhibits bacterial ribosomal RNA function over humanized ribosomes; E. coli WT GFP vs humanized-ribosome RFP mutants, fluorescence, 24 h; active compounds read low; DMSO median 0, no signal -100; GFP signal change (wild-type ribosome), % (no concentration beside the values); 1.6% of 350,000 active; AID 720706;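 active means significant combined selectivity score with lowered wild-type GFP, culture density cut under 30%, mutant RFP and density less affected; inactive means any of these conditions unmet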; further: one replicate is shown; some compounds called inactive have numbers as strong as hits
# Vif TR-FRET: HIV-1 Vif–A3G interaction blockers – biochemical, TR-FRET, GST-Vif 1-94, biotin-A3G peptide, dose response retest, primary screen (AID 1117319); inhibition, %, or IC50 in µM where a hit was titrated; 0.57% of 260,000 active; TR-FRET GST-Vif / biotin-A3G peptide binding; higher % means a stronger effect; test concentration not given here; strong numbers were not always called active;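 active means above the screen mean plus three standard deviations and confirmed in dose response; inconclusive means results disagree or hit not tested in dose response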;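 further: Vif residues 1-94 fused to GST binding biotinylated APOBEC3G peptide 110-148; 0% = full assay without inhibitor and 100% = GST in place of GST-Vif; retest series ran down from 100 µM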
# rRNA inh HTS OD600: second read-out of rRNA inh HTS, no call of its own (marks repeat the call); OD600 change, %; measured here: OD600 growth;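 optical density of the mix in the first replicate; 0 = DMSO median and -100 = no signal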
# rRNA inh HTS RFP: second read-out of rRNA inh HTS, no call of its own (marks repeat the call); RFP signal change, %; measured here: RFP humanized mutant strains;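 first replicate; 0 = DMSO median and -100 = no signal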
# An asterisk follows results filed as active; ? = inconclusive; . = not tested or not shown; & = joins results of further samples. Some of the compounds tested. The share of hits here may be higher or lower than overall.
SMILES,A1 inh,Beta cell apopt,Calb FLC,AF4-AF9 inh,RanGTP-Impb inh,T cruzi inh,rRNA inh HTS,rRNA inh HTS OD600,rRNA inh HTS RFP,Vif TR-FRET
Cc1nnc(SCC(=O)Nc2ccc(Br)cn2)[nH]c1=O,-0.1,-10,-4,.,4.8,-4,.,.,.,-3%
CCC(C)c1nc2ccsc2c(N2CCOC2=O)c1-c1ccccc1 (stereo unspecified),-0.7,-3,-1,-16,-3.4,-10,5,0,1.9,.
CCN1C(=O)C(CC(=O)Nc2ccc(OC)cc2)N(Cc2ccco2)C1=S (stereo unspecified),0.0,-4,-2,.,4.2,2,.,.,.,2%
Cc1ccc(S(=O)(=O)NCCNS(=O)(=O)c2ccc(C)cc2)cc1,1.3,-6,8,-1.4,0.8,2,-16,-15,-2.1,-7%
COc1ccc(C2c3sc(=O)[nH]c3SCC2C(N)=O)cc1 (stereo unspecified),-0.2,-9,0,-1.6,1.1,1,13,9,15,-3%
COC(CNS(=O)(=O)c1ccc(Cl)cc1)c1ccccc1 (stereo unspecified),1.2,-1,-19,2.0,-1.6,-3,-18,-43,-15,.
Cc1ccc(C(=O)NNC(=S)Nc2cccc3ccccc23)s1,-1.5,-1,12,.,5.2,-4,.,.,.,5%
Cc1ccc(N2C(=O)C3C4C=CC(CNC(=S)N5CCN(c6ccccn6)CC5)(O4)C3C2=O)cc1 (stereo unspecified),0.5,-24,-1,1.4,?,6,-3,10,17,.
Cc1cccc(NS(=O)(=O)c2ccc3c(c2)CCN3C(=O)CCC(=O)O)c1,-0.8,-5,1,-1.0,0.3,-7,-4,8,-0.7,2%
CCC(=O)Nc1cccc(NC(=S)NC(=O)c2ccccc2C)c1,-1.1,4,-5,-2.4,-2.2,-1,12,5,-2.0,0%
CCCCCCNC(=O)c1cc(S(=O)(=O)N2CCc3ccccc32)ccc1F,-0.2,0,2,3.6,-0.6,11,18,17,2.8,-2%
CC1CCN(c2ccc(NC(=O)c3ccc([N+](=O)[O-])o3)cc2)CC1,-5.0,85*,-3,-64,2.9,72*,-2,5,-0.7,9%
CCOc1ccc(NC(=O)c2nn(C)c(C(=O)Nc3ccc(OCC)cc3)c2[N+](=O)[O-])cc1,-0.1,10,12,-2.5,-0.1,-2,-2,-4,-2.1,-6%
Cc1nonc1-c1csc(N)n1,0.0,-3,3,1.4,-2.2,16,7,1,-0.8,-7%
COc1nc(OC)nc(N(C)CCO)n1,-1.0,-3,35,.,-3.5,-20,.,.,.,2%
CN(C)C(=O)CSc1nnc(-c2cccs2)n1-c1ccccc1,0.4,-2,10,-9.1,0.2,-6,1,3,-8.2,-2%
Cc1ccc(NC(=O)C2CC(=O)N(c3ccc4c(c3)OCCO4)C2)cc1S(=O)(=O)N(C)C (stereo unspecified),0.5,.,1,1.9,2.9,8,-1,-3,-0.1,0%
O=c1c2ccccc2cnn1Cc1n[nH]c(=S)n1-c1ccc(Cl)cc1Cl,0.8,.,-5,.,9.1,-1,.,.,.,.
COc1ccc(C(=O)Cn2c(=O)c(CCC(=O)O)nn3c4ccccc4nc23)cc1OC,0.8,-5,10,.,-2.5,-3,.,.,.,-2%
Cc1cc(S(=O)(=O)NCc2ccccn2)c(Cl)cc1Cl,0.7,-2,7,-13,0.6,3,8,2,1.1,-3%
C/C(=N\NC(=O)c1cccc(Br)c1)c1ccccn1,0.1,105*,-14,0.9,6.2,50,-52,-75,-16,.
CCN1CCCC1CNC(=O)CN(C)S(=O)(=O)c1ccc(Cl)cc1 (stereo unspecified),0.5,1,0,-2.0,?,11,6,12,-1.9,.
CC(=O)N1CCN(c2ccc(NC(=O)c3ccc4ccccc4c3)cc2)CC1,0.2,5,27,2.7,8.1,-16,-4,6,-1.1,1%
CC1CCC/C=C/C(=O)c2c(O)cc(O)cc2CC(=O)O1 (stereo unspecified),-0.4,23,1,-1.1,3.1,30,.,.,.,.
CC1CCCCN1C(=O)Cn1cc(C#N)c2ccccc21 (stereo unspecified),0.0,0,?,.,-3.0,10,.,.,.,.
COc1cccc(NC(=O)CN(C)C(=O)c2cn(-c3ccccc3)nc2-c2cccs2)c1,0.5,3,9,-35,3.4,-7,-10,-21,14,-12%
CCC(C)(C(=O)NC1CCCCC1)N(CC1CCCO1)C(=O)CNC(=O)c1ccccc1 (stereo unspecified),0.1,0,-2,.,-1.1,9,.,.,.,-4%
c1ccc(-n2cc(CN3CCCC(CN4CCCC4)C3)c(-c3ccc4c(c3)OCO4)n2)cc1 (stereo unspecified),-0.5,-3,-22,10,2.9,52,.,.,.,-20%
CCCCCn1c(=O)[nH]c2cc(C(=O)NCCN3CCCCC3C)ccc2c1=O (stereo unspecified),1.2,-4,7,.,1.7,18,.,.,.,.
Cc1oc(-c2ccccc2F)nc1CS(=O)(=O)CC(=O)NCCN1CCCC1,-0.2,-3,6,1.7,6.2,-4,1,5,-0.5,.
O=C(Nc1cnn(Cc2ccc(Cl)cc2Cl)c1)c1noc2c1CCCC2,0.5,.,.,-3.4,.,.,-7,-39,5.6,?
Cc1ccccc1NC(=O)CCCCC(=O)Nc1ccccc1C,1.1,0,-2,-1.5,8.6,3,23,13,9.9,-1%
CCOCCOC(=O)Cn1cnc2scc(-c3ccc(C)cc3)c2c1=O,0.8,-3,-38,-0.9,-1.0,-6,-4,-11,-3.0,.
Cn1c(-c2ccc(F)cc2)cnc1NCc1cc2c(cc1[N+](=O)[O-])OCO2,-0.7,2,-1,.,-2.4,26,.,.,.,.
CSc1ccccc1C(=O)Nc1cccc(N(C)S(C)(=O)=O)c1,1.4,3,-4,-2.4,2.3,-8,-1,-2,-0.9,14%
COc1cccc(NC(=S)NCCC(c2ccccc2)c2ccccc2)c1,0.2,2,-12,.,6.2,20,.,.,.,0%
CCN(CC)CCn1c(=S)[nH]c2cc(C(=O)N3CC=C(c4ccccc4)CC3)ccc2c1=O,1.6,7,-8,-2.0,8.0,14,5,-8,-8.3,5%
O=C(COC(=O)c1cccc(OC(F)F)c1)Nc1ncccn1,-0.9,-1,.,6.7,.,.,19,19,4.4,13%
CCOc1ccc(Br)cc1CC(=O)O,0.1,.,32,.,4.2,-1,.,.,.,9%
COc1ccc(CC(=O)Nc2cc(C)on2)cc1OC,-0.6,-6,-2,.,-1.0,0,.,.,.,3%

# A second format for part of the listing above.
smiles	A1 inh	Beta cell apopt	Calb FLC	AF4-AF9 inh	RanGTP-Impb inh	T cruzi inh	rRNA inh HTS	rRNA inh HTS OD600	rRNA inh HTS RFP	Vif TR-FRET
CCC(=O)Nc1cccc(NC(=S)NC(=O)c2ccccc2C)c1	-1.1	4	-5	-2.4	-2.2	-1	12	5	-2.0	0%
CCCCCCNC(=O)c1cc(S(=O)(=O)N2CCc3ccccc32)ccc1F	-0.2	0	2	3.6	-0.6	11	18	17	2.8	-2%

# Next section.
SMILES,A1 inh,Beta cell apopt,Calb FLC,AF4-AF9 inh,RanGTP-Impb inh,T cruzi inh,rRNA inh HTS,rRNA inh HTS OD600,rRNA inh HTS RFP,Vif TR-FRET
COc1ccc(-n2nnnc2/C(=C/N(C)C)C(=O)c2ccccc2)cc1,0.6,-6,-3,.,-2.2,1,1,1,7.5,7%
CCOC(=O)c1c(C)nc2ccccc2c1-c1ccccc1,-0.8,-6,3,.,-2.4,-12,.,.,.,.
O=C(/C=C/c1ccco1)NC(=S)Nc1ccc(N2CCOCC2)c(Cl)c1,1.7,13,17,.,?,-26,.,.,.,?
Cc1cc(OCC(=O)Nc2ccncc2)ccc1[N+](=O)[O-],0.2,-3,14,-3.3,0.1,43,-10,-23,-4.0,-2%
CCNc1nc(N)nc(-c2cc(Cl)ccc2O)n1,-4.8,-14,80*,.,-0.4,-21,.,.,.,.
O=C(CCCCCN1C(=O)c2ccccc2C1=O)Nc1cccc(O)c1,1.5,-3,5,0.6,-1.0,1,-8,-11,-3.0,-7%
COc1cc(/C=C/C(=O)c2ccc(Cl)s2)cc(OC)c1O,1.1,-22,31,.,-7.2,-53,.,.,.,11%
CN1CCCC1=Nc1c2c(nc3ccccc13)N(C)CC2,0.3,9,-1,-7.7,-0.5,-11,2,-2,-0.9,9%
Nc1cccnc1Oc1ccccc1F,2.3,.,-2,0.1,3.4,-20,5,0,3.4,-3%
CCc1c(C)c(C#N)c2nc3ccccc3n2c1NCCN(C)C,-0.1,10,43,.,?,68*,.,.,.,3%&8%
COc1ccccc1CN1CCN(C(CC(C)C)c2nnnn2Cc2cccs2)CC1 (stereo unspecified),-0.3,19,-2,.,-1.9,-12,.,.,.,-6%
CCn1c(SCC(=O)NC2CCCCC2)nnc1-c1ccccn1,-2.7,.,-3,-2.4,0.1,2,14,11,0.3,.
CCN1CCn2c1nc(N1CCCCC1)nc2=O,?,-11,4,.,-0.1,41,.,.,.,7%
O=C(COc1ccc(NC(=O)c2ccccc2)cc1)c1ccccc1,-0.5,3,1,2.1,4.7,-4,1,7,2.1,-7%
COc1ccc(NC2CCCN(C(=O)CSc3ccccc3)C2)cc1OC (stereo unspecified),-0.3,.,15,4.4,1.6,-9,3,0,0.4,1%
Cc1ccc(NC(=O)CN2CCN(C(=O)C3CCCO3)CC2)c(C)c1 (stereo unspecified),-0.7,-3,-6,-1.3,-3.0,-9,9,8,-1.8,-1%
CCN1CCN(C(=O)c2ccc(S(=O)(=O)Nc3ccccc3)cc2)CC1,-0.8,1,.,0.1,.,.,5,0,-3.4,.
O=C(COc1ccc2cc(Br)ccc2c1)N1CCOCC1,0.1,-4,.,-2.4,.,.,-20,-15,-0.2,.
CCOC(=O)c1nnn(CC(=O)Nc2cccc(F)c2)c1C(=O)OCC,-0.2,1,-6,.,1.3,-17,.,.,.,-3%
CCCN(CCC)S(=O)(=O)c1cccc(-c2csc(C)n2)c1,0.9,6,-5,-2.0,1.7,1,-17,-15,5.8,-5%

# Some entries already given with just rRNA inh HTS RFP, Beta cell apopt and rRNA inh HTS.
compound	rRNA inh HTS RFP	Beta cell apopt	rRNA inh HTS
CCOC(=O)c1nnn(CC(=O)Nc2cccc(F)c2)c1C(=O)OCC	.	1	.
COc1ccccc1CN1CCN(C(CC(C)C)c2nnnn2Cc2cccs2)CC1 (stereo unspecified)	.	19	.
O=C(COc1ccc2cc(Br)ccc2c1)N1CCOCC1	-0.2	-4	-20
